# eIF4H inh: inhibitors of RNA binding by human eIF4H; AID 2012; inhibition, % at 35 µM; eIF4H fluorescence polarization binding assay; Q15056; actives 0.94% (n = 290,000);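 active = 50% or more with normal probe brightness, or confirmed in later tests; about a fifth of its hits are not listed in these tables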;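 also: calls also rest on retests at 20 µM and on dose response follow-up; 0% = protein and probe with vehicle and 100% = probe without protein; strong numbers were not always called active; many hits fall short of the cut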
# PABP FP inh: blocks human PABP binding to poly(A) RNA. fluorescence polarization. inhibition, % at 35 µM. actives 1% (n = 290,000);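 active = 50% or more with normal probe brightness, or confirmed in later tests; about a fifth of its hits are not listed in these tables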;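 also: calls also rest on retests at 20 µM and on dose response follow-up; controls were probe without protein and protein plus probe with vehicle; some compounds called inactive have numbers as strong as hits; many hits fall short of the cut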
# Target sequence (P11940 whole entry, looked up): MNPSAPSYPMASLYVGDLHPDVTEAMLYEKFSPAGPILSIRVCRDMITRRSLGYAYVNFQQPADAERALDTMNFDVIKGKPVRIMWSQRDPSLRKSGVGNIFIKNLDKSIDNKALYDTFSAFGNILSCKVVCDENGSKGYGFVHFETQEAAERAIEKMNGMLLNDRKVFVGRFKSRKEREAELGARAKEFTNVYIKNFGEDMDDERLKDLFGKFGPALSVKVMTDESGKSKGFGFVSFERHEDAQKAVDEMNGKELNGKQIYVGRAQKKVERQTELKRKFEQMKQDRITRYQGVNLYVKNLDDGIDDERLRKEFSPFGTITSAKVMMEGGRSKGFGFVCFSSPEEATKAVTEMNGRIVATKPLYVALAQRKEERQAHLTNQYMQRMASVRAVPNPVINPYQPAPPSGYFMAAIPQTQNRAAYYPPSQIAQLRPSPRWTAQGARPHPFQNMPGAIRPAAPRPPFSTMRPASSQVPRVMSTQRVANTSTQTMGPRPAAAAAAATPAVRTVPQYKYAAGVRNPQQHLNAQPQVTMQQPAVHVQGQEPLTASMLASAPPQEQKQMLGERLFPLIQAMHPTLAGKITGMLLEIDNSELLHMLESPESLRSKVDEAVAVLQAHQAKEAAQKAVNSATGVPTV
# HIV Env fusion: HIV envelope-mediated fusion inhibition. inhibition, % at 12.3 µM. actives 1.1% (n = 360,000). HeLa-JRFL Env/CEM21 cell fusion, luciferase;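 active = mean replicate inhibition score of at least 50 and every replicate individually at or above 50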;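 also: 0% = plate neutral controls and 100% = maraviroc near 300 nM; one replicate is shown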
# CSC inhib: cancer stem cell inhibition; cancer stem cell-like cells viability, luminescence; inhibition, % at 7.5 µM; actives 1.1% (n = 300,000);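 active = mean at 75% or more and at least half the replicates too; tested in HMLE shEcad cells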;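 also: 0% = median of negative and 100% = median of positive control wells; the first replicate is given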
# Yeast UUG start: yeast start codon fidelity modulation | S. cerevisiae UUG-firefly luciferase reporter, luminescence/redox ratio | activity score, % at 18.7 µM | actives 0.13% (n = 350,000) | AID 602363;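 active = replicate mean at a twofold rise or more, about +100% in these data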;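 also: firefly luciferase made from a UUG start codon reports start codon fidelity; reporter light over untreated wells divided by growth signal over untreated wells; some hits fall short of that in this replicate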
# MT1-MMP act inh: inhibitors of human MT1-MMP activation. actives 0.061% (n = 360,000). P50281. GFP/RFP ratio change, % at 20 µM. AID 651647. HT1080 RFP-PRO-GFP cells, GFP/RFP ratio fluorescence, overnight; percent of plate control window, DMSO zero;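 active = GFP/RFP ratio change of at least 30% with cell ATP level not reduced by more than half and red fluorescence within 50% of control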; also: strong numbers were not always called active
#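 Test system: HT1080 cells expressing an RFP-PRO-GFP fluorescent reporter construct / Compound dosing: single-point 20 µM compound, 1% DMSO / Schedule: cells overnight before dosing, compound overnight, 37 °C, 5% CO2 / Evaluation: GFP/RFP fluorescence ratio / Control set: DMSO and RFP-L50D-GFP cell wells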
# Rce1 inh: yeast Ras-converting enzyme inhibition; yeast membranes, quenched prenylated peptide cleavage fluorescence; calls only; actives 0.27% (n = 290,000); AID 2563; Q03530;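 active = fall in fluorescence gain of 50% or more versus controls, with final raw signal at or below 3038400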;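 also: plate controls were neutral control wells for no effect and wells lacking membranes for full effect; tested at 10 µM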
# MT1-MMP act inh RFP: second read-out of MT1-MMP act inh, no call of its own (marks repeat the call); RFP signal change, %; measured here: RFP expression control read;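 0 = vehicle wells; hits needed this value within 50% of zero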
# * marks the source's active call; other numbers are inactive results; i = inactive; . = no result given. Only part of the results is shown; count on the stated rates, not on these rows.
# The line under a structure holds: eIF4H inh, PABP FP inh, HIV Env fusion, CSC inhib, Yeast UUG start, MT1-MMP act inh, MT1-MMP act inh RFP, Rce1 inh
COCCn1c(Cc2ccccc2)nnc1SCC(=O)NC(C)(C)C
→ 3, -6, -5, -3, -7, 5, 3, i
Cc1ccc(C(=O)N/C(=C/c2cccs2)C(=O)NCC2CCCO2)cc1 (stereo not drawn)
→ 11, -2, 12, 8, ., 1, 5, i
Cc1ccc(CS(=O)(=O)CCC(=O)NCc2ccccc2Cl)cc1
→ -2, 4, -1, -1, -19, 0, 3, i
COc1ccc(NC(C)=O)cc1NC(C)C(=O)Nc1ccc(F)cc1 (stereo not drawn)
→ -10, -1, -73, 9, -10, -7, 0, i
O=C(CCN1N=C(c2ccccc2)CCC1=O)NC1CCCC1
→ -19, 2, 1, -5, -13, 3, 5, i
O=C(Nc1c(-c2ccccc2)nc2sccn12)c1ccccc1
→ 4, 5, -75, 9, -9, -5, -3, i
COCCCN1C(=O)C(=O)/C(=C(/O)c2ccc(S(=O)(=O)N3CCOCC3)cc2)C1c1ccc(F)cc1 (stereo not drawn)
→ ., ., 4, -15, 2, -2, 0, i
O=C(c1csc(Nc2ccccc2Cl)n1)N1CCCC1
→ -4, 9, -86, -17, -20, 8, 2, i
COc1ccccc1NC(=O)C1=C(C)Nc2ncnn2C1c1ccccc1C (stereo not drawn)
→ 0, 10, -24, -5, -22, 2, 4, i
Cc1sc(NC(=S)NC(=O)C(C)(C)C)c(C(N)=O)c1C
→ 2, 2, ., 0, -6, 12, -1, i
Cc1ccc(S(=O)(=O)N2CCN(C(=O)CC(C)n3nc(C)c(Cl)c3C)CC2)cc1C (stereo not drawn)
→ -3, -4, 4, 11, -6, -1, 1, i
CCOC(=O)c1c(S(=O)(=O)NCC(=O)N2CCN(c3ccc(OC)cc3)CC2)c(C)n(C)c1C
→ ., ., 6, -1, -5, -1, -1, i
Cc1cc(NC(=O)COc2cccc(C)c2C)no1
→ -18, -10, -26, 2, -19, -1, -1, i
CCOc1ccc(-n2c(SCC(N)=O)nnc2-c2cccnc2)cc1
→ 3, -2, 7, -1, ., 2, 1, i
CCCCNC(=O)/C=C/c1cccs1
→ 3, 1, 1, 5, -15, 1, 3, i
O=C1CS/C(=N/N=C2CCCC2)N1
→ -3, 1, -1, -13, ., 0, 5, .
Cc1ccc(N2CC(C(=O)OCC(=O)Nc3cccc(Cl)c3C)CC2=O)cc1 (stereo not drawn)
→ ., ., -14, ., -9, 2, 1, .
Nc1nc(NCCCN2CCOCC2)nc(Nc2cccc(Cl)c2)c1[N+](=O)[O-]
→ -13, -4, -25, 9, ., -6, -2, i
CC(C)NC(=O)c1c(CSc2ccc(Cl)cc2)noc1C(=O)NCc1ccccc1
→ ., ., 3, 25, 0, -5, 4, i
CCCc1cc(=O)[nH]c(N/N=C/C=C\c2ccccc2)n1
→ 3, -2, 10, 14, -21, 8, 0, i
CSCCC(NC(=O)c1ccccc1)C(=O)N1CC=C(c2ccccc2)CC1 (stereo not drawn)
→ -6, -1, -8, 16, -4, -1, -4, i
CNC(=O)COC(=O)/C=C/c1cn(-c2ccccc2)nc1-c1ccc(C)o1
→ -4, -1, 13, -3, -14, 1, -3, i
O=S(=O)(c1cccs1)N1CCN(c2ccccc2Cl)CC1
→ 5, 5, 20, 8, -18, 0, 0, i
CSc1cccc(NC(=O)CCCOc2cc(=O)n(C)c3ccccc23)c1
→ ., ., 20, ., -15, 11, 1, .
CCCNC(=O)CN1C(=O)NC(CC)(c2ccc(F)cc2)C1=O (stereo not drawn)
→ -11, 4, 0, 19, -12, -11, -4, i
Cc1ccsc1CNCc1cc(Cl)ccc1O
→ ., ., -16, -20, -22, 5, 9, .
Cc1cccc(S(=O)(=O)Nc2nc3ccccc3nc2NCc2ccco2)c1
→ 37, 27, ., 1, -32, -6, -2, i
CCOC(=O)CON1C(=O)c2ccccc2C1=O
→ 0, 22, ., 1, -15, 9, 5, i
Cc1oncc1C(=O)NC(C)C
→ -10, -13, 8, -3, -23, -1, 0, i
OC1(c2nc3ccccc3[nH]2)CCCCC1
→ ., ., 13, -9, -26, 0, 5, i

# Part of the list above in order of molecular weight, rising.
# The line under a structure holds: eIF4H inh, PABP FP inh, HIV Env fusion, CSC inhib, Yeast UUG start, MT1-MMP act inh, MT1-MMP act inh RFP, Rce1 inh
Cc1oncc1C(=O)NC(C)C
→ -10, -13, 8, -3, -23, -1, 0, i
CCCNC(=O)CN1C(=O)NC(CC)(c2ccc(F)cc2)C1=O (stereo not drawn)
→ -11, 4, 0, 19, -12, -11, -4, i
O=S(=O)(c1cccs1)N1CCN(c2ccccc2Cl)CC1
→ 5, 5, 20, 8, -18, 0, 0, i
CSc1cccc(NC(=O)CCCOc2cc(=O)n(C)c3ccccc23)c1
→ ., ., 20, ., -15, 11, 1, .
CSCCC(NC(=O)c1ccccc1)C(=O)N1CC=C(c2ccccc2)CC1 (stereo not drawn)
→ -6, -1, -8, 16, -4, -1, -4, i

# (more compounds)
# The line under a structure holds: eIF4H inh, PABP FP inh, HIV Env fusion, CSC inhib, Yeast UUG start, MT1-MMP act inh, MT1-MMP act inh RFP, Rce1 inh
COc1ccc(OC)c(-c2csc(NC(=O)CSc3nnnn3C)n2)c1
→ ., ., -1, -2, ., 5, 0, i
CC(OC(=O)CCc1nc2ccccc2c(=O)[nH]1)C(=O)NCc1ccc2c(c1)OCO2 (stereo not drawn)
→ -4, -10, 1, -12, 23, 1, 0, i
CC(=O)Nc1ccc(NC(=O)CN2CCN(c3ccccn3)CC2)cc1
→ -6, 4, 5, 8, -10, -1, -3, i
Cc1nc2ccccc2c(=O)n1NC(=O)c1c(O)c2c(n(CC(C)C)c1=O)CCCC2
→ 6, 4, 11, ., -13, -10, -1, i
Cc1cccc(C)c1NC(=O)CN(C)C(=O)C1CC1C (stereo not drawn)
→ ., ., -1, ., -18, -2, -1, .
COC(=O)N/N=C/c1sc(N2CCCCC2)nc1-c1cccs1
→ -4, 2, -5, -13, -8, -11, 6, i
O=C(CCNc1ccc(Cc2ccncc2)cc1)c1ccc([N+](=O)[O-])cc1
→ -11, -7, -55, 21, ., 3, 2, i
Cc1cccc(N(CC(=O)NC2CCCCC2)C(=O)CCC(=O)Nc2ccccn2)c1
→ 7, 8, ., -1, ., ., ., i
NC(=O)Nn1c(CCC(=O)O)ccc1-c1ccc(Cl)cc1
→ 4, 6, -7, -4, 0, 5, 5, i
Cn1c(=O)oc2cc(S(=O)(=O)Nc3cccc4c3CCCC4)ccc21
→ 62*, 56*, 12, -11, -6, -26, -6, i
Cn1cccc1/C=N/NC(=O)c1ccc[n+]([O-])c1
→ -6, -12, 6, -2, ., -2, 1, i
COC(=O)CSc1nc2cc3c(cc2cc1C)OCO3
→ 5, -14, 3, -6, 3, 0, 0, i
O=C(O)c1ccc(N2CCCC2=O)cc1
→ -6, 5, -3, -15, -6, 1, 11, i
COc1cccc(C(=O)NNC2=CC(=O)CC(C)(C)C2)c1
→ 3, -1, 14, -8, 8, 5, 3, i
COc1ccc(S(=O)(=O)N2CCc3ccccc32)cc1C(=O)N1CCC(C)CC1
→ ., ., 14, -8, ., -1, -3, .
CCc1nnc(NC(=O)CCS(=O)(=O)Cc2ccccc2)s1
→ -4, -5, -5, 5, -17, -1, 2, i
CCc1ccccc1N(C(=O)c1snc(C(N)=O)c1N)C(C(=O)NCC1CCCO1)c1c[nH]c2ccccc12 (stereo not drawn)
→ -8, -5, 0, 12, 0, -11, -4, i
CCOC(=O)C1=C(N)Oc2cc(O)ccc2C1c1ccc([N+](=O)[O-])cc1 (stereo not drawn)
→ -6, 0, 17, -14, ., 0, 0, i
CCNC(=S)NNC(=O)c1cccs1
→ 0, 1, ., 14, -18, 1, 2, i
Cc1ccc(S(=O)(=O)NCCC(C)C)cc1[N+](=O)[O-]
→ -8, 7, 13, 6, ., -2, -3, i
CCOC(=O)Cc1csc(NC(=O)CSc2nnc(-c3ccc(C)cc3)o2)n1
→ -6, 2, 17, -3, -29, 0, 0, i
CC(C)NC(=S)NC(=O)/C=C/c1cccc2ccccc12
→ -4, 2, -15, 10, -13, -9, -9, i
COC(=O)C1=CN(C2CC2)C=C(C(=O)OC)C1c1ccccc1OC
→ -5, 9, ., 2, ., -2, 1, i
O=C(CN1C(=O)NC2(CCCC2)C1=O)Nc1nc2c(F)cc(F)cc2s1
→ ., ., 1, 0, -15, -3, 0, i
CCOC(=O)N1CCN(C(=O)COC(=O)Cc2ccc(Cl)cc2)CC1
→ -6, 10, 9, -12, -3, -5, 1, i
O=C(Nc1ccnn1C1CCN(C(=O)c2ccccc2C(F)(F)F)CC1)C1CC1
→ -9, -5, -10, 0, 2, -4, 1, i
CC(=O)c1c(C)[nH]c(C(=O)OCC(=O)NCCC2=CCCCC2)c1C
→ ., ., ., -2, -6, 1, -15, i
CCOC(=O)Cc1cc(=O)n2[nH]c(-c3ccc(C)cc3)cc2n1
→ 29, 4, -28, ., -10, 0, 5, i
COC(=O)c1ccc2c(=O)n(Cc3ccco3)c(SCC(=O)Nc3ccc(C)c(Cl)c3)nc2c1
→ -9, 5, -40, 21, -18, 2, 1, i
C[C@H](CO)N1C[C@H](C)[C@@H](CN(C)S(C)(=O)=O)Oc2c(NC(=O)Cc3ccccc3)cccc2C1=O
→ ., ., -38, 4, 15, 1, -1, .
COc1cccc(C(=O)Nc2ccc(Oc3cccc(C(F)(F)F)c3)nc2)c1
→ 5, 5, 30, 41, -4, -6, -29, i
CC(=O)c1cccc([N+](=O)[O-])c1
→ ., ., ., -2, -17, 0, 8, .
O=C(NCC1CCCO1)/C(=C/c1cn(-c2ccccc2)nc1-c1cccnc1)NC(=O)c1ccccc1 (stereo not drawn)
→ -4, 5, 16, 5, ., 1, -5, i
CCC(NC(=O)c1ccccc1NC(=O)c1ccco1)C(=O)O (stereo not drawn)
→ -6, 21, ., -9, -9, -3, 2, i
COC(=O)c1c(NC(=O)c2ccnn2C)sc(C)c1C
→ ., ., 42, 12, -12, -19, -1, i
CCCc1ccccc1OCCNC(=O)c1cc(=O)n(C)c(=O)n1C
→ -3, 12, 5, 7, ., 2, 4, i
OCCNC(=S)Nc1ccc(Oc2ccccc2)cc1
→ -5, -8, -12, 12, ., 2, 4, i
O=C(CN1C(=O)NC2(CCSC2)C1=O)NCc1ccccc1 (stereo not drawn)
→ -7, 2, 7, -2, -13, -1, 4, i
O=C(NC1CCCC1)C(Cc1ccccc1)n1cccc1 (stereo not drawn)
→ -7, -8, 2, ., 13, 5, 3, i
CC[C@@]1(C(=O)OC)N[C@H](CN(C)S(=O)(=O)c2ccc(C(F)(F)F)cc2)[C@@H]2C(=O)N(C)C(=O)[C@@H]21
→ ., ., 12, ., -2, 5, 10, .
CCc1nn(C(C)C(=O)N(C)Cc2ccccc2)c(=O)c2cc3occc3n12 (stereo not drawn)
→ -6, -2, -3, -5, 5, 13, 0, i
Cc1ccc(CSCC(=O)N2CCN(c3ccc(F)cc3)CC2)cc1
→ 10, -1, 14, -8, -9, 7, 0, i
C/C(=N\NC(=O)c1ccccc1-n1cccc1)C1CC1
→ -9, -5, 3, 4, ., -2, 2, i
Cc1cccc(OCC(=O)O/N=C(\N)c2ccccn2)c1
→ -1, 3, ., ., ., 2, 2, i
CSc1nc(=S)n(-c2ccccc2)c(C)c1C(C)=O
→ -5, 2, -4, 3, -13, 1, 6, i
Cc1ccccc1-c1nc2cc(Cl)ccc2o1
→ -7, -10, -70, -11, 7, -1, -1, i
COc1ccc(C(=O)NCC(=O)OCC(=O)N2N=C(c3ccc(Cl)cc3)CC2c2ccco2)cc1OC (stereo not drawn)
→ 4, -9, 14, 7, -2, 1, -1, i
CNC(=S)N(Cc1cccs1)Cc1cc2cc(OC)ccc2[nH]c1=O
→ -2, -2, -3, -2, -11, -5, -10, i
CCN(c1cccc(C)c1)S(=O)(=O)c1ccc(OC)c([N+](=O)[O-])c1
→ 3, 7, 21, 6, -9, 1, -2, i
O=C(CSc1nnnn1C1CCCCC1)NCc1ccco1
→ 8, -4, -36, 4, -8, -2, 0, i
CCOc1ccc(NC(N)=O)cc1
→ 2, 5, ., 21, -5, 3, 3, i

# Screening data from PubChem.
